From PubChem BioAssay
rRNA inh HTS: inhibits bacterial ribosomal RNA function over humanized ribosomes; E. coli WT GFP vs humanized-ribosome RFP mutants, fluorescence, 24 h; stronger effect = lower value; DMSO median 0, no signal -100; GFP signal change (wild-type ribosome), % (concentration not given with the values); 350,000 tested, 1.6% active; AID 720706;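 active = significant combined selectivity score with lowered wild-type GFP, culture density cut under 30%, mutant RFP and density less affected; inactive = any of these conditions unmet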; note: one replicate is shown; some compounds called inactive have numbers as strong as hits
AF4-AF9 inh: MLL-AF4/AF9 protein interaction inhibition | P42568 | AlphaScreen, biotin-AF4 peptide binding to FLAG-AF9 | inhibition, % at 10 µM | 350,000 tested, 0.47% active | AID 651704;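 active = every replicate reaching a set inhibition limit, whatever the replicate mean, cut at about 25% in these data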;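 note: 0% = plate neutral control median and 100% = total signal loss; the record names both 10 and 1 µM as test concentration; the first replicate is given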
Target sequence (P42568 whole entry, looked up): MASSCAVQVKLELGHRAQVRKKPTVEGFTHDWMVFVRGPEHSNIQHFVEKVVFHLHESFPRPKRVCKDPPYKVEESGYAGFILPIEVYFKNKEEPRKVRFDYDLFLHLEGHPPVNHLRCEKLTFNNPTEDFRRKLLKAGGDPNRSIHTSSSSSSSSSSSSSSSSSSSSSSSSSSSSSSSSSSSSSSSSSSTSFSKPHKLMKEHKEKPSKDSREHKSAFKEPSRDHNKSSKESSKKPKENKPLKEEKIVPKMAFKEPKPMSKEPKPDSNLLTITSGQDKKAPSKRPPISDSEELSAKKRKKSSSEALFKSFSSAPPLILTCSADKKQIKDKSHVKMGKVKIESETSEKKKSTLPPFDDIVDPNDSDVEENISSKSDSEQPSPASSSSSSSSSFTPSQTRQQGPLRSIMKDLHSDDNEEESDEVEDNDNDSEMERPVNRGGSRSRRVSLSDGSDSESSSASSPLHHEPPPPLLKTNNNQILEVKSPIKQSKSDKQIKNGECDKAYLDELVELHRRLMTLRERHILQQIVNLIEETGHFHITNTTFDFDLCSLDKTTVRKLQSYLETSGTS
rRNA inh HTS OD600: recorded beside rRNA inh HTS, whose call it bears; OD600 change, %; measured here: OD600 growth;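 optical density of the mix in the first replicate; 0 = DMSO median and -100 = no signal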
rRNA inh HTS RFP: recorded beside rRNA inh HTS, whose call it bears; RFP signal change, %; measured here: RFP humanized mutant strains;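 first replicate; 0 = DMSO median and -100 = no signal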
An asterisk follows results filed as active; & = joins results of further samples.

Second line of a record – rRNA inh HTS | rRNA inh HTS OD600 | rRNA inh HTS RFP | AF4-AF9 inh
> C[C@H]1CN([C@@H](C)CO)C(=O)c2cccc(NC(=O)c3ccc(-c4nccs4)cc3)c2O[C@@H]1CN(C)CC1CCCCC1
→ -1 | -3 | 0.5 | 6.1
> C[C@@H]1CN([C@H](C)CO)C(=O)c2cc(NC(=O)c3ccncc3)ccc2O[C@H]1CN(C)Cc1ccc(C(=O)O)cc1
→ 3 | 4 | 0.7 | -0.6
> CCN(C[C@@H]1[C@@H](c2ccccc2)[C@H](CO)N1C(=O)COC)S(C)(=O)=O
→ 1 | 1 | -1.6 | -2.5
> Cc1ccccc1S(=O)(=O)N(C)C[C@H]1OCc2ccccc2-c2ccccc2C(=O)N([C@H](C)CO)C[C@@H]1C
→ 1 | -4 | 1.7 | 4.1
> Cc1c(COC(=O)NC(C)C)c(COC(=O)NC(C)C)c2n1CS(=O)(=O)C2
→ 9 | 8 | -0.5 | 9.4
> O=C(C[C@H]1CC[C@H](NC(=O)c2ccccc2)[C@@H](CO)O1)NCc1ccncn1
→ 1 | -2 | -0.4 | -0.8
> C[C@H](CO)N1C[C@H](C)[C@H](CN(C)Cc2ccc(-c3ccccc3)cc2)OCc2ccccc2-c2c(n(C)c3ccccc23)C1=O
→ 3 | 14 | -3.5 | -0.8
> C[C@@H]1CCCCO[C@H](CN(C)C(=O)Nc2ccccc2)[C@H](C)CN([C@@H](C)CO)C(=O)c2cc(NC(=O)Nc3ccc4c(c3)OCO4)ccc2O1
→ 0 | 1 | -2.8 | 2.7
> C[C@@H]1CN([C@H](C)CO)C(=O)Cc2cc(NC(=O)Cc3cn(C)c4ccccc34)ccc2O[C@@H]1CN(C)Cc1ccc(Cl)c(Cl)c1
→ 0 | 1 | -3.2 | 3.8
> Cn1cnc(S(=O)(=O)N2CCCCC2c2cc(C(=O)Nc3ccc(F)c(Cl)c3)no2)c1 (configuration not stated)
→ -5 | -1 | 0.2 | -1.8
> COc1ccccc1CN1C[C@@H](C)[C@@H](OC)CN(C)C(=O)c2ccc(NC(C)=O)cc2OC[C@@H]1C
→ 1 | -3 | 0.4 | -0.2
> CO[C@@H]1CN(C)C(=O)c2ccc(NC(=O)Nc3cccc(F)c3)cc2OC[C@H](C)N(C)C[C@H]1C
→ -1 | 7 | -1.0 | -4.2
> C[C@@H]1CN([C@@H](C)CO)C(=O)Cc2cc(NS(C)(=O)=O)ccc2O[C@@H]1CN(C)CC1CCCCC1
→ 3 | -4 | -1.5 | -0.2
> Cc1ccc(-c2nc3c(C)cc(Br)cn3c2Cc2ccccc2C(F)(F)F)cc1
→ 0 | 2 | 4.1 | -0.6
> O=C(C[C@@H]1C[C@H]2c3cc(NC(=O)Nc4ccccc4)ccc3O[C@H]2[C@@H](CO)O1)NCCN1CCCCC1
→ 7 | 6 | -0.5 | 6.7
> CCN1C[C@@H]2[C@@H]3C(=O)N(Cc4ccccc4)C(=O)[C@@H]3[C@](Cc3ccccc3)(C1=O)N2C(=O)c1ccc(Cl)cc1
→ 7 | 7 | 4.6 | -0.7
> C[C@H](CO)N1C[C@H](C)[C@H](CN(C)S(=O)(=O)c2ccccc2)OCCCC[C@H](C)Oc2ccc(NC(=O)Nc3ccc4c(c3)OCO4)cc2C1=O
→ -3 | 11 | -3.2 | 3.7
> CC(C)CC#Cc1ccc2c(c1)O[C@@H](CN(C)Cc1ccccn1)[C@@H](C)CN([C@H](C)CO)S2(=O)=O
→ -21 | -45 | 34 | 6.0
> CCC(=O)N1CC2(C1)[C@H](c1ccccc1)[C@@H](CO)N2C(=O)NC(C)C
→ 2 | 1 | -3.4 | -2.0
> CCCNC(=O)Nc1ccc2c(c1)C(=O)N(C)[C@@H]1CC[C@@H](CC(=O)NCC3CCCCC3)O[C@H]1CO2
→ -4 | -9 | 1.2 | 9.3
> COc1ccc(CN(C)C[C@@H]2Oc3ccc(NC(=O)CCC(F)(F)F)cc3C(=O)N([C@H](C)CO)C[C@@H]2C)cc1
→ 1 | 2 | -0.3 | 0.0
> CC(=O)N1[C@H](CO)[C@H](c2ccccc2)[C@H]1CN(C)S(=O)(=O)c1ccccc1
→ -4 | -5 | -0.7 | -0.1
> C[C@@H]1CN([C@@H](C)CO)C(=O)c2c(c3ccccc3n2C)-c2ccccc2CO[C@H]1CN(C)C
→ 1 | 5 | 1.6 | -0.8
> C[C@H]1CN([C@@H](C)CO)C(=O)Cc2cc(NC(=O)CCN3CCOCC3)ccc2O[C@H]1CN(C)S(=O)(=O)c1ccccc1
→ -1 | 5 | -0.9 | -0.3
> C[C@@H]1CN([C@H](C)CO)C(=O)c2cccc(NS(=O)(=O)c3ccccc3)c2O[C@H]1CN(C)S(=O)(=O)c1ccc(Cl)cc1
→ -5 | -14 | 2.1 | -31
> CCC(=O)N(C)C[C@@H]1Oc2cc(Br)ccc2S(=O)(=O)N([C@H](C)CO)C[C@H]1C
→ -5 | -7 | 2.1 | -2.0
> COc1ccc(Cl)cc1-c1cc(C(=O)Nc2ccc(F)cc2)[nH]n1
→ 5 | 8 | -0.5 | 1.0
> CC1(C(=O)Nc2cccnc2)Cc2c(-c3cccc(C(F)(F)F)c3)ccnc2O1 (configuration not stated)
→ -47 | -72 | -13 | 0.4
> O=C(C1CC1)N1CCCCN2[C@H](CO)[C@@H](c3ccc(-c4cccc(F)c4)cc3)[C@@H]2C1
→ -36 | -68 | -0.3 | -7.3
> C[C@@H]1CN([C@@H](C)CO)C(=O)c2cc(-c3cncnc3)cnc2O[C@@H]1CN(C)C(=O)c1ccccc1F
→ 7 | 14 | -4.2 | -1.2

The closing 4 compounds of the part above lead into the next.
Second line of a record – rRNA inh HTS | rRNA inh HTS OD600 | rRNA inh HTS RFP | AF4-AF9 inh
> COc1ccc(Cl)cc1-c1cc(C(=O)Nc2ccc(F)cc2)[nH]n1
→ 5 | 8 | -0.5 | 1.0
> CC1(C(=O)Nc2cccnc2)Cc2c(-c3cccc(C(F)(F)F)c3)ccnc2O1 (configuration not stated)
→ -47 | -72 | -13 | 0.4
> O=C(C1CC1)N1CCCCN2[C@H](CO)[C@@H](c3ccc(-c4cccc(F)c4)cc3)[C@@H]2C1
→ -36 | -68 | -0.3 | -7.3
> C[C@@H]1CN([C@@H](C)CO)C(=O)c2cc(-c3cncnc3)cnc2O[C@@H]1CN(C)C(=O)c1ccccc1F
→ 7 | 14 | -4.2 | -1.2
> CCN1CC(=O)N2[C@H](CO)[C@@H](c3ccc(-c4ccccc4F)cc3)[C@H]2C1
→ 2 | 5 | -2.9 | 0.5
> CC(C)NC(=O)N1C[C@@H]2[C@H](c3ccccc31)[C@H](CO)N2C(=O)c1cccnc1
→ 2 | 12 | 0.4 | 0.9
> CCc1nc2c(OCC(=O)c3ccc(Cl)cc3Cl)cccn2c1N(C)C(=O)COc1ccccc1
→ -13 | -15 | 9.3 | 0.4
> Cc1cccc(-c2ccc([C@H]3[C@H](CO)N4CCCCN(C(=O)NC(C)C)C[C@@H]34)cc2)c1
→ 4 | 4 | 4.7 | -1.4
> COc1ccccc1NC(=O)N1C[C@@H]2[C@H](c3ccccc31)[C@H](CO)N2Cc1ccc2c(c1)OCO2
→ -11 | -20 | 1.4 | 2.8
> CC(C)NC(=O)Nc1ccc2c(c1)CC(=O)N([C@H](C)CO)C[C@H](C)[C@@H](CN(C)Cc1ccc(C(=O)Nc3ccccc3N)cc1)O2
→ 1 | 17 | -3.1 | -3.4
> COc1ccc(CN(C)C[C@H]2Oc3ccc(NC(=O)Nc4ccccc4)cc3C(=O)N([C@H](C)CO)C[C@H]2C)cc1
→ 1 | -7 | 1.1 | -4.6
> CC(C)NC(=O)N(C)C[C@H]1OCCCC[C@@H](C)Oc2ccc(NS(C)(=O)=O)cc2C(=O)N([C@@H](C)CO)C[C@H]1C
→ 3 | -6 | -1.2 | -0.6
> COc1ccc(S(=O)(=O)N[C@@H]2CC[C@@H](CC(=O)N3CCc4ccccc4C3)O[C@@H]2CO)cc1
→ -1 | -2 | 0.7 | 0.8
> COc1ccc(S(=O)(=O)Nc2ccc3c(c2)C(=O)N([C@H](C)CO)C[C@H](C)[C@H](CN(C)C(=O)NC2CCCCC2)O3)cc1
→ -2 | -2 | 0.0 | -2.4
> C[C@@H]1CCCCO[C@H](CN(C)CC2CC2)[C@@H](C)CN([C@H](C)CO)C(=O)c2cc(NC(=O)Cc3ccccc3)ccc2O1
→ 4 | -7 | -3.5 | -3.5
> O=C(N[C@@H]1CC[C@@H](CCNC(=O)C2CCCCC2)O[C@H]1CO)c1ccncc1
→ 1 | 2 | -0.4 | 2.4
> Cc1ccc(S(=O)(=O)Nc2cccc3c2O[C@@H](CN(C)S(=O)(=O)c2cn(C)cn2)[C@@H](C)CN([C@@H](C)CO)C3=O)cc1
→ 8 | 6 | -0.9 | -3.8
> CCCNC(=O)c1cc(C2CCCCN2C(=O)c2cc(OC)c(C)c(OC)c2)on1 (configuration not stated)
→ -2 | 7 | 0.6 | -0.3
> O=C(C[C@H]1CC[C@@H]2[C@H](COC[C@H](O)CN2CCc2ccccc2)O1)N1CCC(Cc2ccccc2)CC1
→ -41 | -72 | -3.8 | 5.7
> COCC(=O)Nc1ccc2c(c1)C(=O)N(C)C[C@@H](OC)[C@H](C)CN(CCc1ccccc1)[C@H](C)CO2
→ -2 | 0 | 0.2 | 5.9
> O=C(C[C@H]1C=C[C@@H](NC(=O)Nc2cc(F)ccc2F)[C@@H](CO)O1)NCc1ccccn1
→ 0 | -3 | -1.3 | -1.6
> C[C@@H]1CN([C@@H](C)CO)S(=O)(=O)c2ccc(C#CCN(C)C)cc2O[C@@H]1CN(C)C(=O)CN(C)C
→ 2 | 11 | -0.9 | 2.6
> COCC(=O)Nc1ccc2c(c1)C(=O)N(C)C[C@@H](OC)[C@@H](C)CN(C(=O)c1cccnc1)[C@H](C)CO2
→ 2 | -4 | -1.6 | 1.7
> Cc1cn([C@H]2C[C@H](O)[C@@H](CNCc3ccc(N4CCN(C)CC4)cc3F)O2)c(=O)[nH]c1=O
→ 20 | 3 | 2.2 | 0.6
> COc1cccc(NC(=O)C[C@@H]2CC[C@H]3[C@@H](COc4ccc(NC(=O)C5CC5)cc4C(=O)N3C)O2)c1
→ -1 | 1 | -2.4 | 2.5
> Cc1noc(C)c1S(=O)(=O)Nc1ccc2c(c1)CC(=O)N([C@H](C)CO)C[C@@H](C)[C@H](CN(C)S(=O)(=O)c1cn(C)cn1)O2
→ 5 | 15 | -0.5 | -1.0
> CC(C)NC(=O)N1C[C@@H]2[C@H](c3ccccc31)[C@H](CO)N2Cc1ccc(Cl)cc1
→ -3 | 0 | 3.8 | 0.4
> CCC1(c2ccc(F)cc2)NC(=O)N(CC(=O)Nc2cccc(S(=O)(=O)N3CCOCC3)c2)C1=O (configuration not stated)
→ -1 | -8 | -1.1 | 1.2
> O=C([C@@H]1[C@@H](CO)[C@@H]2Cn3c(cccc3=O)[C@@H]2N1CC1CCCCC1)N1CCOCC1
→ -2 | -1 | -0.7 | -3.7
> CCCNC(=O)N(C)C[C@@H]1Oc2cc(-c3cccnc3)ccc2S(=O)(=O)N([C@H](C)CO)C[C@H]1C
→ -2 | -4 | -5.3 | 2.7
> CO[C@H]1CN(C)C(=O)c2ccc(NC(=O)c3cc(C)on3)cc2OC[C@@H](C)N(C)C[C@H]1C
→ 1 | 1 | -1.1 | -1.6
> COCC(=O)N(C)C[C@@H]1Oc2ncc(C#Cc3cccnc3)cc2C(=O)N([C@@H](C)CO)C[C@@H]1C
→ 4 | 2 | -0.2 | -5.7
> O=C(NC1CCC1)[C@H]1[C@H](CO)[C@H]2Cn3c(ccc(-c4ccccc4)c3=O)[C@H]2N1CCc1ccccc1
→ -9 | -43 | 9.1 | 3.8
> COc1cccc(-c2ccc3n(c2=O)C[C@H]2[C@H](CO)[C@@H](C(=O)NCC4CC4)N(C(C)=O)[C@@H]32)c1
→ 4 | 14 | -3.7 | -0.4
> COc1ccc(-c2ccccc2[C@@H]2[C@@H](C#N)N(C(=O)C3CCOCC3)[C@H]2CO)cc1
→ 2 | 7 | -2.6 | 0.3
> O=S1(=O)CC(N2CCCCC2)CN1Cc1cn(Cc2ccc(C(F)(F)F)cc2)nn1 (configuration not stated)
→ 12 | 7 | 1.4 | -0.1
> C[C@@H]1CN([C@@H](C)CO)S(=O)(=O)c2ccc(-c3ccccc3F)cc2O[C@H]1CN(C)Cc1cncnc1
→ -14 | -29 | -1.9 | 5.2
> C[C@@H]1CN([C@@H](C)CO)C(=O)c2cc(NC(=O)Nc3ccc(F)cc3)ccc2O[C@@H]1CN(C)C
→ 3 | 8 | -1.5 | -3.2
> COc1ccc(CNC(=O)C[C@H]2C[C@H]3c4cc(NC(=O)C5CCC5)ccc4O[C@H]3[C@H](CO)O2)cc1
→ -3 | -4 | 1.0 | -12
> CC(=O)N(C[C@@H]1N[C@@H](CO)[C@H]1c1ccc(-c2cccnc2)cc1)C1CCCC1
→ -2 | 1 | 1.4 | -2.2&-1.9
> O=C1O[C@@H](c2ccccc2)C[C@@H](O)[C@H](O)CCc2ccccc21
→ 1 | 6 | 8.2 | 0.4
> COC(=O)C[C@@H]1C[C@@H]2c3cc(N)ccc3O[C@@H]2[C@H](CO)O1
→ 4 | -1 | -1.5 | 7.6
> COc1ccccc1CNc1nc(NCc2ccccc2OC)c2sccc2n1
→ -11 | -50 | -0.6 | 2.5
> CCc1csc(N2[C@H](CO)[C@H](c3ccccc3)[C@@H]2CNC)n1
→ 0 | 7 | -0.2 | 2.5
> CO[C@H]1CN(C)C(=O)c2ccc(NS(C)(=O)=O)cc2OC[C@H](C)N(CC2CC2)C[C@@H]1C
→ -4 | 4 | -2.4 | -0.9
> O=S(=O)(c1ccc(F)cc1)N1CCCCN2[C@@H](CO)[C@@H](c3ccc(-c4cncnc4)cc3)[C@@H]2C1
→ -6 | 6 | 0.4 | -2.8

These rows are one share of the data (hit frequency here may not be typical).
